Ecoli rRNA inh = reduced GFP signal of wild-type E. coli, primary screen, bacterial rRNA inhibitor project, GFP/RFP fluorescence, OD600, single point; E. coli WT GFP vs humanized-ribosome RFP mutants, 24 h; hits give low values; DMSO median 0, no signal -100; GFP signal change (wild-type ribosome), % (concentration not given with the values); 350,000 tested, 1.6% active; AID 720706, 2013;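 active = significant combined selectivity score with lowered wild-type GFP, culture density cut under 30%, mutant RFP and density less affected; inactive = any of these conditions unmet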; also: one replicate is shown; some compounds called inactive have numbers as strong as hits
Ecoli rRNA inh OD600 = further read-out of Ecoli rRNA inh, marked with its call; OD600 change, %; measured here: OD600 growth;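 optical density of the mix in the first replicate; 0 = DMSO median and -100 = no signal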
Ecoli rRNA inh RFP = second read-out of Ecoli rRNA inh, no call of its own (marks repeat the call); RFP signal change, %; measured here: RFP humanized mutant strains;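 first replicate; 0 = DMSO median and -100 = no signal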
The depositor's hits bear a star. An excerpt; count on the stated rates, not on these rows.

SMILES	Ecoli rRNA inh	Ecoli rRNA inh OD600	Ecoli rRNA inh RFP
CNC[C@@H]1Oc2ncc(Br)cc2C(=O)N([C@H](C)CO)C[C@H]1C	5	3	-4.2
CO[C@H]1CN(C)C(=O)c2ccc(NS(=O)(=O)CC(F)(F)F)cc2OC[C@H](C)N(C(=O)NC(C)C)C[C@@H]1C	-1	2	-0.3
C[C@H](CO)N1C[C@H](C)[C@@H](CN(C)S(=O)(=O)c2ccc(Cl)cc2)Oc2ccc(NS(=O)(=O)c3ccccc3)cc2C1=O	-1	-3	1.4
O=C(NC[C@@H]1[C@H](c2ccccc2)[C@H](CO)N1CC1CCCC1)c1ccncc1	0	7	-2.7
Cc1ccc(S(=O)(=O)N(C)C[C@H]2Oc3ccc(NS(C)(=O)=O)cc3CC(=O)N([C@H](C)CO)C[C@@H]2C)cc1	-1	3	0.4
C[C@H]1CN([C@@H](C)CO)C(=O)c2cc(-c3cccc(C(=O)N(C)C)c3)cnc2O[C@H]1CN(C)S(=O)(=O)c1ccccc1	0	7	-1.4
CNC[C@H]1Oc2c(NC(=O)CCC(F)(F)F)cccc2C(=O)N([C@H](C)CO)C[C@@H]1C	3	8	-2.9
CCCNC(=O)N1CC2(CN(C(=O)CCC)C2)c2c(n(C)c3cc(OC)ccc23)[C@H]1CO	-1	13	-2.5
COCC(=O)Nc1ccc2c(c1)C(=O)N(C)[C@H]1CC[C@@H](CC(=O)N3CCc4ccccc4C3)O[C@@H]1CO2	2	2	-2.3
COC(=O)N(C)C[C@@H]1OCc2cn(nn2)CCCC(=O)N([C@@H](C)CO)C[C@@H]1C	1	-3	1.1
C[C@H]1CN(C)C(=O)c2cc(N(C)C)ccc2O[C@@H]1CN(C)S(C)(=O)=O	3	6	-2.3
CC[C@H]1CC=CC[C@H](C)Oc2ccccc2C(=O)N(C)[C@@H](Cc2ccccc2)C(=O)N1 (mixture of isomers)	-23	-64	18
CC(=O)N1[C@@H]2Cn3c(ccc(-c4ccccc4)c3=O)[C@H]1[C@@H](C(=O)NC1Cc3ccccc3C1)[C@@H]2CO	-2	-4	-1.0
COc1ccccc1S(=O)(=O)N1CC[C@H]2[C@@H](CO)N(C)c3ccc(-c4ccc(C#N)cc4)cc3[C@H]21	-1	0	-3.5
CC(C)CC#Cc1ccc([C@H]2[C@@H](CO)N3C(=O)CN(C(=O)NC(C)C)C[C@@H]23)cc1	7	9	3.5
CO[C@@H]1CN(C)C(=O)c2ccc(NC(=O)c3cccc(Oc4ccccc4)c3)cc2OC[C@H](C)NC[C@H]1C	-4	1	10
C[C@@H]1CN([C@H](C)CO)S(=O)(=O)c2ccc(C3=CCCC3)cc2O[C@H]1CN(C)S(C)(=O)=O	2	-9	1.7
C[C@H]1CN([C@@H](C)CO)C(=O)c2cc(C3=CCCCC3)cnc2O[C@@H]1CN(C)S(C)(=O)=O	5	13	-3.4
Cc1noc(C)c1S(=O)(=O)N(C)C[C@@H]1Oc2ccc(NS(=O)(=O)c3ccccc3)cc2C(=O)N([C@@H](C)CO)C[C@@H]1C	1	-7	0.3
CNC[C@H]1OCCCC[C@@H](C)Oc2ccc(NS(=O)(=O)c3ccc(F)cc3)cc2C(=O)N([C@@H](C)CO)C[C@@H]1C	9	10	0.6
C/C=C/c1ccc([C@@H]2[C@@H](CNC(C)=O)N(Cc3ccccn3)[C@H]2CO)cc1	1	9	-1.1
CCS(=O)(=O)N1CC(=O)N2[C@H](CO)[C@@H](c3ccc(C#Cc4ccc(F)cc4)cc3)[C@H]2C1	2	7	0.2
CCC(=O)N1CC[C@@H]2[C@H]1c1cc(-c3ccc(C#N)cc3)ccc1N(C)[C@H]2CO	-10	-9	2.7
CC(C)[C@@H]1COCc2cn(nn2)CCC[C@@H](C)C(=O)N1	8	11	2.1
C/C=C/c1ccc([C@H]2[C@@H](CO)N(C(=O)CC)[C@@H]2CNC(=O)c2ccncc2)cc1	0	13	-2.4
O=C(NCc1ccc2c(c1)OCO2)[C@@H]1[C@@H](CO)[C@@H]2Cn3c(cccc3=O)[C@H]1N2Cc1cccnc1	3	0	-1.6
CCCNC(=O)N1CC2(CN(C)C2)c2c(n(C)c3cc(OC)ccc23)[C@@H]1CO	4	8	-0.5
CC(=O)N(C)C[C@H]1Oc2ncc(C#Cc3ccc(F)cc3)cc2C(=O)N([C@@H](C)CO)C[C@@H]1C	-4	11	-0.6
CCCC(=O)N1CCC2(CC1)CN[C@@H](CO)c1c2c2ccc(OC)cc2n1C	2	8	1.1
COc1ccc(NC(=O)N(C)C[C@H]2Oc3ccc(NS(=O)(=O)c4ccc(C)cc4)cc3CC(=O)N([C@H](C)CO)C[C@H]2C)cc1	-1	-2	1.5
CCCNC(=O)Nc1ccc2c(c1)OC[C@@H](C)NC[C@H](C)[C@@H](OC)CN(C)C2=O	2	3	-1.0
Cc1noc(C)c1NC(=O)N1C[C@@H](O)COC[C@H]2O[C@@H](CC(=O)N[C@@H]3CCN(Cc4ccccc4)C3)CC[C@@H]21	3	10	0.6
C[C@H](CO)N1C[C@H](C)[C@@H](CN(C)C(=O)NC2CCCC2)OCc2cnnn2CCCC1=O	1	-2	-0.3
COc1ccc2c3c(n(C)c2c1)[C@H](CO)N(CC1CCOCC1)CC31CN(Cc2nccs2)C1	3	5	-1.1
CO[C@H]1CN(C)C(=O)c2cc(NC(=O)NC(C)C)ccc2OC[C@@H](C)N(Cc2cncnc2)C[C@@H]1C	4	6	-0.5
C[C@@H]1CCCCO[C@@H](CN(C)Cc2ccncc2)[C@@H](C)CN([C@H](C)CO)C(=O)c2cc(N(C)C)ccc2O1	0	4	-0.2
COCC(=O)N1[C@H](CN(C)C(=O)c2ccncc2)[C@@H](c2ccccc2)[C@@H]1CO	6	5	1.8
C[C@@H]1CCCCO[C@@H](CN(C)Cc2ccc3c(c2)OCO3)[C@H](C)CN([C@H](C)CO)C(=O)c2cc(NS(C)(=O)=O)ccc2O1	0	7	-0.5
CC(C)NC(=O)N(C)C[C@@H]1OCCCC[C@@H](C)Oc2ccc(N(C)C)cc2C(=O)N([C@H](C)CO)C[C@H]1C	1	-1	-0.7
C[C@@H]1CCCCO[C@H](CN(C)S(C)(=O)=O)[C@H](C)CN([C@@H](C)CO)C(=O)c2cc(NC(=O)CCC(F)(F)F)ccc2O1	1	7	0.0

3 entries already listed, arranged by their value in Ecoli rRNA inh RFP, descending:
canonical_smiles,Ecoli rRNA inh RFP
CO[C@@H]1CN(C)C(=O)c2ccc(NC(=O)c3cccc(Oc4ccccc4)c3)cc2OC[C@H](C)NC[C@H]1C,10
CC(C)NC(=O)N(C)C[C@@H]1OCCCC[C@@H](C)Oc2ccc(N(C)C)cc2C(=O)N([C@H](C)CO)C[C@H]1C,-0.7
C[C@H]1CN([C@@H](C)CO)C(=O)c2cc(C3=CCCCC3)cnc2O[C@@H]1CN(C)S(C)(=O)=O,-3.4

The list continues.
SMILES	Ecoli rRNA inh	Ecoli rRNA inh OD600	Ecoli rRNA inh RFP
CCCC#Cc1ccc2c(c1)O[C@H](CN(C)C(=O)C1CCCCC1)[C@@H](C)CN([C@H](C)CO)S2(=O)=O	1	-16	9.2
COc1ccc2c3c([nH]c2c1)[C@H](CO)N(Cc1ccc(F)cc1)CC31CN(C(=O)NC(C)C)C1	0	-4	3.6
CCCN1[C@H](CO)[C@H](c2ccc(-c3ccccc3F)cc2)[C@@H]1CNC(=O)C1CCC1	-7	-10	1.3
C[C@H]1CN([C@@H](C)CO)C(=O)c2c(c3ccccc3n2C)-c2ccccc2CO[C@H]1CN(C)C(=O)Nc1ccc(F)cc1	-3	1	1.3
CCCNC(=O)Nc1ccc2c(c1)C(=O)N(C)C[C@@H](OC)[C@H](C)CN(Cc1ccncc1)[C@@H](C)CO2	0	5	-1.3
CC(=O)NC[C@H]1[C@H](c2ccc(-c3cccnc3)cc2)[C@H](CO)N1C(=O)C1CCC1	0	11	-2.9
C[C@H]1CN([C@@H](C)CO)C(=O)CCCn2cc(nn2)CO[C@H]1CN(C)C(=O)c1ccncc1	2	1	-0.7
C[C@H](CO)N1C[C@H](C)[C@@H](CN(C)S(=O)(=O)c2cccs2)Oc2c(NC(=O)CCCN(C)C)cccc2C1=O	0	12	1.1
CCCNC(=O)N1CC2(CCN(C(=O)Nc3cccc(F)c3)CC2)c2c(n(C)c3cc(OC)ccc23)[C@H]1CO	-7	-14	-1.4
C/C=C/c1ccc2c(c1)O[C@H](CN(C)C(=O)C1CCCCC1)[C@@H](C)CN([C@@H](C)CO)S2(=O)=O	3	-10	1.4
C[C@H]1CN([C@@H](C)CO)C(=O)CCCn2cc(nn2)CO[C@H]1CN(C)Cc1ccc2c(c1)OCO2	0	4	2.5
CC(C)[C@@H]1CC=CC[C@H](C)Oc2ccccc2C(=O)N(C)[C@@H](C(C)C)C(=O)N1 (mixture of isomers)	-10	-15	-2.2
CC(C)NC(=O)Nc1cccc2c1O[C@H](CN(C)S(C)(=O)=O)[C@H](C)CN(C)C2=O	9	10	0.7
COc1ccc(C[C@H]2CCn3cc(nn3)COCCNC2=O)cc1	2	4	-6.5
CCC(=O)N1[C@H](CO)[C@H](c2ccccc2)[C@@H]1CN(CC)C(=O)c1ccccc1	1	1	0.1
CNC[C@@H]1OCCCC[C@H](C)Oc2ccc(NC(=O)Nc3ccc4c(c3)OCO4)cc2C(=O)N([C@@H](C)CO)C[C@@H]1C	1	6	-0.5
CC(C)C#Cc1ccc([C@@H]2[C@@H](CO)N3C(=O)CN(C(=O)Cc4cccnc4)C[C@H]23)cc1	2	-3	-0.3
C[C@H](CO)N1C[C@H](C)[C@@H](CN(C)C(=O)C2CCCCC2)Oc2ncc(C#CC3CC3)cc2C1=O	1	9	-3.9
C[C@@H]1CN([C@@H](C)CO)S(=O)(=O)c2ccc(-c3cncnc3)cc2O[C@H]1CN(C)C(=O)C1CC1	-3	-2	-3.2
CNC[C@H]1Oc2ccc(NC(=O)CCN3CCOCC3)cc2C(=O)N([C@@H](C)CO)C[C@@H]1C	1	-3	-0.3
CC(=O)Nc1ccc2c(c1)C(=O)N(C)C[C@H](C)[C@@H](CN(C)S(C)(=O)=O)O2	2	8	-0.3
C[C@H]1CN([C@@H](C)CO)C(=O)c2cc(-c3cccnc3)cnc2O[C@@H]1CN(C)Cc1ccccc1	2	1	-1.8
CO[C@@H]1CN(C)C(=O)c2cc(NC(C)=O)ccc2OC[C@H](C)N(CC2CCCCC2)C[C@@H]1C	5	9	-1.7
Cc1ccc(S(=O)(=O)Nc2ccc3c(c2)C(=O)N([C@@H](C)CO)C[C@H](C)[C@H](CN(C)Cc2ccc(Oc4ccccc4)cc2)O3)cc1	-1	-11	2.6
Cc1noc(C)c1S(=O)(=O)N(C)C[C@H]1Oc2ccc(NC(=O)Nc3ccccc3)cc2CC(=O)N([C@H](C)CO)C[C@@H]1C	2	-2	-2.4
C[C@@H]1CN([C@H](C)CO)C(=O)c2cc(-c3cccc(F)c3)cnc2O[C@@H]1CN(C)Cc1cccc(F)c1	-2	2	-0.6
COc1ccc2c3c([nH]c2c1)[C@@H](CO)N(Cc1ccccc1OC)CC31CCN(C)CC1	-1	0	0.9

As a working copy, 17 of the compounds above.
SMILES	Ecoli rRNA inh	Ecoli rRNA inh OD600	Ecoli rRNA inh RFP
C[C@H]1CN([C@@H](C)CO)C(=O)CCCn2cc(nn2)CO[C@H]1CN(C)Cc1ccc2c(c1)OCO2	0	4	2.5
CC(C)[C@@H]1CC=CC[C@H](C)Oc2ccccc2C(=O)N(C)[C@@H](C(C)C)C(=O)N1 (mixture of isomers)	-10	-15	-2.2
CC(C)NC(=O)Nc1cccc2c1O[C@H](CN(C)S(C)(=O)=O)[C@H](C)CN(C)C2=O	9	10	0.7
COc1ccc(C[C@H]2CCn3cc(nn3)COCCNC2=O)cc1	2	4	-6.5
CCC(=O)N1[C@H](CO)[C@H](c2ccccc2)[C@@H]1CN(CC)C(=O)c1ccccc1	1	1	0.1
CNC[C@@H]1OCCCC[C@H](C)Oc2ccc(NC(=O)Nc3ccc4c(c3)OCO4)cc2C(=O)N([C@@H](C)CO)C[C@@H]1C	1	6	-0.5
CC(C)C#Cc1ccc([C@@H]2[C@@H](CO)N3C(=O)CN(C(=O)Cc4cccnc4)C[C@H]23)cc1	2	-3	-0.3
C[C@H](CO)N1C[C@H](C)[C@@H](CN(C)C(=O)C2CCCCC2)Oc2ncc(C#CC3CC3)cc2C1=O	1	9	-3.9
C[C@@H]1CN([C@@H](C)CO)S(=O)(=O)c2ccc(-c3cncnc3)cc2O[C@H]1CN(C)C(=O)C1CC1	-3	-2	-3.2
CNC[C@H]1Oc2ccc(NC(=O)CCN3CCOCC3)cc2C(=O)N([C@@H](C)CO)C[C@@H]1C	1	-3	-0.3
CC(=O)Nc1ccc2c(c1)C(=O)N(C)C[C@H](C)[C@@H](CN(C)S(C)(=O)=O)O2	2	8	-0.3
C[C@H]1CN([C@@H](C)CO)C(=O)c2cc(-c3cccnc3)cnc2O[C@@H]1CN(C)Cc1ccccc1	2	1	-1.8
CO[C@@H]1CN(C)C(=O)c2cc(NC(C)=O)ccc2OC[C@H](C)N(CC2CCCCC2)C[C@@H]1C	5	9	-1.7
Cc1ccc(S(=O)(=O)Nc2ccc3c(c2)C(=O)N([C@@H](C)CO)C[C@H](C)[C@H](CN(C)Cc2ccc(Oc4ccccc4)cc2)O3)cc1	-1	-11	2.6
Cc1noc(C)c1S(=O)(=O)N(C)C[C@H]1Oc2ccc(NC(=O)Nc3ccccc3)cc2CC(=O)N([C@H](C)CO)C[C@@H]1C	2	-2	-2.4
C[C@@H]1CN([C@H](C)CO)C(=O)c2cc(-c3cccc(F)c3)cnc2O[C@@H]1CN(C)Cc1cccc(F)c1	-2	2	-0.6
COc1ccc2c3c([nH]c2c1)[C@@H](CO)N(Cc1ccccc1OC)CC31CCN(C)CC1	-1	0	0.9
